ClpP mod: qHTS Assay for Activators of ClpP; hit rate 1.9% among 340,000; Potency, µM (highest dose often 57.5 µM), for the others: at the top dose activity change, negative = active; purified B. subtilis ClpP, FRET peptide cleavage, 20 min; ATP-dependent Clp protease proteolytic subunit (Bacillus subtilis (strain 168)), P80244; active = well fitted falling curve with a large enough effect; inconclusive = small, poorly fitted or top-dose-only effect; inactive = no such curve, though single readings can be large or run the other way; note: potency is the fitted concentration of half-maximal effect; the source files actives as falling curves though it sought activators and does not explain the sign; nearly all actives have a fitted effect of over 65% in size; many hits overshoot -100%
Target sequence (P80244 whole entry, looked up): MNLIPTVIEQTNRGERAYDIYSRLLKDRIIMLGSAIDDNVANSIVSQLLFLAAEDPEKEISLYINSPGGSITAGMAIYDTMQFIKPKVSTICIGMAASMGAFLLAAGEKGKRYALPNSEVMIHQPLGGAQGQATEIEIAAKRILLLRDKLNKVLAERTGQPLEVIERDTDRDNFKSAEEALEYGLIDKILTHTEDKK
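Purified B. subtilis ClpP, 10 microg/mL final in Tris/HCl pH8 with KCl, BSA, glycerol and Tween-20, cleaved an Abz/nitrotyrosine-quenched decapeptide. Fluorescence (ex 320, em 430) was read at 0 and 20 min at room temperature. Delta was normalized to 5.8 microM ADEP and DMSO/no-enzyme controls.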
gsp agonist: agonists of gsp mutant (McCune-Albright syndrome); gsp mutant cells, cAMP HTRF, 30 min; control for the full effect not named in the record; Potency, µM (highest dose often 76.9 µM), inactives show top-dose activation (cAMP increase), actives largely listed as activators; hit rate 0.13% among 340,000; active = well fitted activation curve with a large enough effect; inconclusive = small, poorly fitted or top-dose-only effect, or another doubt; inactive = no such curve, though single readings can be large or run the other way; cell line not stated here;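 note: phosphodiesterase inhibitor Ro 20-1724 added with compounds to block cAMP breakdown; potency is the fitted concentration of half-maximal effect; nearly all actives have a fitted effect of over 60% in size; about a fifth of the inactives were tested at one dose only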
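Cells in DMEM/10% FBS with G418 were pretreated with compounds in DMSO plus […] (300 uM stock) for 30 min at 37C. cAMP was measured by HTRF (cAMP-d2 plus anti-cAMP antibody-K) after 30 min at room temperature.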
Menin MLL FP FL: menin-MLL binding inhibition, fluorescein peptide; Fluorescence polarization, fluorescein-MLL peptide displacement from menin; 290,000 tested, under 10 active; AID 1766; FP activity change, % at 61.4 µM; inconclusive = falling polarisation curve, or a change in total fluorescence; inactive = total fluorescence flat and polarisation flat or rising; no compound was filed as active; the % refers to the polarisation; negative = inhibition;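 note: % of control where 0% means no effect; inhibitors lower the polarisation; unlabelled MLL peptide was the positive control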
D2 PAM: potentiates the human D2 dopamine receptor allosterically; P14416; DiscoveRx D2 beta-arrestin cells, luminescence, 90 min; 100% = 57 uM dopamine signal; potentiation, % (test concentration not listed); hit rate 0.23% among 360,000; active = potentiation of 50% or more; inconclusive = 30% to 50%; inactive = 30% or less;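 note: compound concentration not given in the record; tested on top of an EC20 dose of dopamine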
Target sequence (P14416 whole entry, looked up): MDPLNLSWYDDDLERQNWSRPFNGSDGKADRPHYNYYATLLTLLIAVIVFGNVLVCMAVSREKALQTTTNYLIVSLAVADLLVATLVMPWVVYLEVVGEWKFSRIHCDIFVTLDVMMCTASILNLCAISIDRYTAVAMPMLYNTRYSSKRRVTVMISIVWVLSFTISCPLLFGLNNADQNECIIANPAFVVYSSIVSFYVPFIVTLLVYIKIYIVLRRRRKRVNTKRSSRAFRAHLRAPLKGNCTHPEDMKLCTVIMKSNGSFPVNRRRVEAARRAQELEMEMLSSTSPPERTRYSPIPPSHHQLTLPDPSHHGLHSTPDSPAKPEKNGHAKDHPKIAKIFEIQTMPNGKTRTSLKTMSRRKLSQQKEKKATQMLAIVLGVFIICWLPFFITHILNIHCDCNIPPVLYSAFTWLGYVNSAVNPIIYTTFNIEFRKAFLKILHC
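PathHunter D2 cells, attached overnight at 37 deg C, received compound in DMSO plus dopamine at EC20 (50 nM final) for 90 min at 37 deg C. Beta-arrestin recruitment was read as luminescence after 1 h with detection reagent at ambient temperature.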
gsp antagonist: antagonists of gsp mutant (McCune-Albright syndrome) | gsp-mutant cells, cAMP HTRF, 30 min; control for the full effect not named in the record | Potency, µM (series often up to 76.9 µM), for the others: top-dose activity change, negative = inhibition, usual class: inhibitors | hit rate 0.4% among 340,000 | AID 624288; active = falling curve of any shape with a large fitted effect; inconclusive = falling curve, mostly with a smaller effect; inactive = flat or rising curve; cell line not stated here;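 note: intracellular cAMP measured with PDE inhibitor Ro 20-1724 present during compound exposure; potency is the fitted concentration of half-maximal effect; % is set by controls: 0 for no effect and ±100 for the full control effect; nearly all actives have a fitted effect of over 65% in size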
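Cells in G418 medium, seeded 16-24 h, 37C; buffer exchange to DPBS + 1 mM CaCl2, 0.5 mM MgCl2, 0.05% BSA; cpds in DMSO + […] (300 uM stock), 30 min 37C; HTRF cAMP detection.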
Sfp inh: Sfp phosphopantetheinyl transferase inhibition. Potency, µM, inactives show max response, negative = inhibition, hits mostly inhibitors. hit rate 3.5% among 310,000. Biochemical Sfp PPTase activity, qHTS; active = well fitted inhibition curve with a large enough effect; inconclusive = small, poorly fitted or top-dose-only effect, or another doubt; inactive = no such curve, though single readings can be large or run the other way;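 note: the enzyme is Sfp with the accession as filed and its product quenches rhodamine fluorescence; potency is the fitted concentration of half-maximal effect; 0% = enzyme reaction without inhibitor and -100% = no enzyme wells; top concentration of the series not given in the record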
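Sfp 15 nM + cpd, 15 min RT; start w/ rhodamine-CoA 5 uM, BHQ-2-YbbR 12.5 uM (final); 50 mM Hepes pH 7.6, 10 mM MgCl2, 0.01% NP-40, 0.01% BSA; read 525/598 nm at 0 and 30 min.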
TRPV1 potentiator: enhances activation of the human vanilloid receptor TRPV1; Q8NER1; TRPV1-expressing cells, Fluo-8 calcium influx, capsaicin EC20 potentiation; host cell line not named in the record; control for the full effect not named in the record; potentiation, % at 8.33 µM; hit rate 0.02% among 320,000; AID 540277; active means potentiation above 80%; inconclusive means 30% to 80%; inactive means below 30%; note: 0% is about no effect
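Cells expressing TRPV1 were dye-loaded with Fluo-8 and read kinetically: 10 s baseline, 3 min after compound (agonist portion), then 2 min after EC20 capsaicin (allosteric enhancer portion). Calcium-bound dye fluorescence at 480/520 nm.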
Starred values were filed as active, the others as inactive; u = inconclusive; x = not tested or not shown; & = joins results of further samples; [ ] = dose if it differs, or a comment.

SMILES	ClpP mod	gsp agonist	Menin MLL FP FL	D2 PAM	gsp antagonist	Sfp inh	TRPV1 potentiator
C=CCn1c(=O)c2ccccc2n2c(SCC(=O)O)nnc12	-3.1%	u	3.0	-10	7%	6%	7
COc1ccc(S(=O)(=O)Nc2ccc(CC#N)cc2)cc1	0.1%	1%	0.5	2	9%	9%	2
C[C@@H]1CN([C@@H](C)CO)C(=O)c2cc(-c3ccccc3F)cnc2O[C@H]1CN(C)Cc1cccc(F)c1	2.5%	-27%	x	-7	x	x	x
CS(=O)(=O)N1CCC(C(=O)Nc2ccc(C(N)=O)cc2)CC1	-0.7%	-17%	-0.4	3	12%	7%	1
COc1ccccc1C(=O)Nc1ccc(S(=O)(=O)Nc2nccs2)cc1	x	8%[15.4 µM]	2.3	-5	x	8%	4
CCOC(=O)c1cnc2ccc(C)cc2c1NCCN1CCOCC1	-9.7%	5%	0.2	1	u	0%	-16
Cc1ccc(OCCn2cc(/C=C(\C#N)C(=O)NCC3CCCO3)c3ccccc32)cc1 (stereo not given)	-5.6%	0%	0.3	-18	-6%	9%	0
COc1cc(C(C)=O)ccc1OCC(O)Cn1nc(C)c(C(C)=O)c1C (stereo not given)	x	0%	2.4	-3	1%	13%	4
Cc1ccccc1NC(=O)Cc1cccc(C(F)(F)F)c1	x	15%[15.4 µM]	-2.0	-2	x	9%	-2
COC(=O)Cn1c(O)c(N=NC(=O)CNC(=O)c2ccncc2)c2ccccc21	x	-14%	x	-7	-15%	2%	7
COc1ccc(NC(=O)/C(Cl)=C(/Cl)S(=O)Cc2ccc(Cl)cc2)cn1 (stereo not given)	x	17%	-1.7	-18	26%	11µM*	-5
CC(C)NC(=NCc1ccc(Cl)cc1Cl)Nc1ccccc1	1.8%	-6%	0.4	-20	11%	2%	-16
Oc1cccc(-c2nc3c4c(ncn3n2)-c2ccccc2CC42CCCC2)c1	-22%	10%	6.3	-9	-18%	4%	-3
COc1ccc(Br)cc1C(=O)Nc1ccccc1N1CCN(C(=O)c2ccccc2)CC1	x	-28%[15.4 µM]	-1.4	-7	-22%	16%	14
CNc1snc(C)c1C(=O)OCC(=O)N(C)c1ccccc1	1.5%	u	x	1	1%	x	1
CN(C)CCNS(=O)(=O)c1ccc(Cl)cc1	0.6%	9%	3.2	-4	0%	10%	7
Cn1c(=O)n(Cc2ccc(F)cc2)c(=O)c2c1nc1n2CCN1Cc1ccco1	x	-8%[15.4 µM]	-0.6	-4	5%	-11%	-34
COc1ccc(C)cc1NC(=O)Cc1c(C(=O)O)n(C)c2ccccc12	-0.9%	12%[15.4 µM]	-1.9	-9	u	5%	4
Cc1cc(NC(=O)c2cc(S(=O)(=O)N3CCCCC3)ccc2C)no1	0.9%	-40%	x	2	-16%	x	x
C/C(CC(=O)NC1CCCC1)=N\NC(=O)Cc1cccs1	1.3%	u	-0.3	-8	16%	13%	-4

Some of the entries so far, as labelled records.
COc1ccc(Br)cc1C(=O)Nc1ccccc1N1CCN(C(=O)c2ccccc2)CC1
  ClpP mod: x | gsp agonist: -28%[15.4 µM] | Menin MLL FP FL: -1.4 | D2 PAM: -7 | gsp antagonist: -22% | Sfp inh: 16% | TRPV1 potentiator: 14

CNc1snc(C)c1C(=O)OCC(=O)N(C)c1ccccc1
  ClpP mod: 1.5% | gsp agonist: u | Menin MLL FP FL: x | D2 PAM: 1 | gsp antagonist: 1% | Sfp inh: x | TRPV1 potentiator: 1

CN(C)CCNS(=O)(=O)c1ccc(Cl)cc1
  ClpP mod: 0.6% | gsp agonist: 9% | Menin MLL FP FL: 3.2 | D2 PAM: -4 | gsp antagonist: 0% | Sfp inh: 10% | TRPV1 potentiator: 7

Remaining list, next part.
SMILES	ClpP mod	gsp agonist	Menin MLL FP FL	D2 PAM	gsp antagonist	Sfp inh	TRPV1 potentiator
Cc1ccc(Nc2nc(N)c([N+](=O)[O-])c(N3CCOCC3)n2)cc1C	-0.8%	-14%[15.4 µM]	3.6	-6	5%	-3%	14
O=C(CS(=O)(=O)c1ccccc1)Nc1cccnc1	-0.2%	15%[15.4 µM]	-2.2	-2	5%	4%	6
CC1CCc2[nH]nc(C(=O)O)c2C1 (stereo not given)	0.3%	-28%	4.4	25	8%	-4%	5
COc1ccc(C(=O)N/C(=C/c2cccnc2)C(=O)N2CCN(C)CC2)cc1OC	-4.8%	35%	x	-7	5%	7%	-11
Cc1cccc(NC(=O)CSc2nccn2C)c1	2.9%	-4%	x	-16	15%	x	x
Cc1ccc2nc3ccc(N4CCCC4)nn3c(=O)c2c1	-3.5%	24%	3.4	-13	-8%	28%	-1
O=C(Nc1nc(-c2ccccc2)ns1)c1ccncc1	-0.4%	u	0.2	-7	-19%	-5%	-13
Cc1cc(C)cc(OCC(=O)OCC(=O)Nc2cc(S(=O)(=O)N3CCOCC3)ccc2C)c1	-2.0%	-10%	x	-16	2%	x	4
N#Cc1c(NC(=O)c2cnn3cccnc23)sc2c1CCCC2	x	0%	4.7	-2	1%	45µM*	-2
NC(=O)CSc1nc(O)cc(=O)n1-c1ccccc1	-3.9%	7%	-0.3	-1	7%	-8%	8
Cn1c(=O)c2c(nc(NCCCN3CCOCC3)n2Cc2ccc(Cl)cc2Cl)n(C)c1=O	x	x	-7.8	x	x	17%	-13
CCCCCCOc1ccc(/C(C)=N/NC2=NCCN2)cc1[N+](=O)[O-]	-0.4%	1%	-0.7	-16	-6%	-11%	-1
COc1ccc(NC(=O)[C@@H]2CCCN2C(=O)c2cccs2)cc1S(=O)(=O)N1CCCCC1	-0.2%	2%	x	5	-12%	x	-2
CCC(C)N(C(=O)CSc1nc2ccc(OC)cc2[nH]1)C1CCS(=O)(=O)C1 (stereo not given)	-0.7%	1%	x	-16	-8%	x	-6
COCCCNC(=S)N/N=C/c1ccc2c(c1)OCO2	-6.0%	-17%	-2.3	9	9%	3%	-6
N#CCCN(C(=O)COC(=O)CSc1ccc(Cl)cc1)c1ccccc1	0.3%	0%[15.4 µM]	x	-10	11%	x	x
CCOc1ccccc1N1CC(C(=O)Nc2cc(Cl)ccc2C)CC1=O (stereo not given)	-2.4%	-4%[15.4 µM]	-0.7	-10	2%	14%	8
CC(=O)Cn1c(CN2CCCC2)nc2ccccc2c1=O	x	8%[15.4 µM]	-1.5	-6	x	10%	6
CC(=O)c1ccccc1NCC(=O)Nc1ccc(C)cc1	1.5%	4%[15.4 µM]	3.4	-35	-1%	-11%	12
O=C(COC(=O)c1ccccc1[N+](=O)[O-])Nc1cc(S(=O)(=O)N2CCOCC2)ccc1N1CCCC1	-0.6%	18%	-0.1	-27	-3%	16%	2
Cc1ccc(C)c(N2CCN(c3nnnn3-c3ccccc3)CC2)c1	2.8%	14%	4.9	-7	-5%	-10%	-18
O=C(Cn1c(C(F)(F)F)nc2ccccc21)N1CCCC1	0.0%	u	0.2	-1	1%	20%	6
CC(NS(=O)(=O)c1cccc(Cl)c1)C(=O)Nc1ccc(-c2nc3ccccc3s2)cc1 (stereo not given)	35µM*	-24%	2.9	3	-7%	4%	0
CCCn1cc(C(=O)OCC)c(=O)c2cc(F)c(F)cc21	x	-7%[15.4 µM]	0.2	7	7%	20%	-4
COc1cc(SC)ccc1C(=O)Nc1ccccc1C#N	-20%	23%	1.7	-5	8%	14%	29
Cn1c(CCNS(=O)(=O)c2ccc(F)cc2)nnc1SCc1cccnc1	x	1%[15.4 µM]	0.0	-12	12%	13%	24
CC(=O)N1N=C(c2ccccc2)OC1c1ccc([N+](=O)[O-])s1 (stereo not given)	x	13%[15.4 µM]	0.2	-18	-35%	-9%	5
Cc1cc(SCC(=O)NN=C2CCN(C(C)C)CC2)c(C)cc1Br	-3.5%	28%	2.9	-28	4%	19%	-6
COc1cc(C2CC(=O)NC3=C2C(=O)CC(C)(C)C3)cc(OC)c1O (stereo not given)	u	0%	1.2	-19	-5%	11%	1
Cc1cc(Cl)ccc1C(=O)C1CCCN(C(=O)c2nonc2C)C1 (stereo not given)	0.7%	-14%	x	-8	-13%	1%	-14
COc1ccccc1N1CCN(C2CCCN(C(=O)c3cc(C(C)C)on3)C2)CC1 (stereo not given)	1.7%	16%	x	-27	x	x	x
COCCNCCOc1ccccc1-c1ccccc1	-3.2%	-2%	-0.8	-32	-13%	50µM*	21
COC(=O)c1nnn(-c2ccc(F)c(Cl)c2)c1C(=O)OC	x	7%[15.4 µM]	-1.8	-7	15%	8%	20
Nc1ncnc(NC2CCS(=O)(=O)C2)c1[N+](=O)[O-] (stereo not given)	x	-5%[15.4 µM]	1.9	-2	7%	7%	11
CC(NC(=O)CC1Sc2ccccc2NC1=O)c1ccccc1 (stereo not given)	x	-4%[15.4 µM]	4.1	-10	4%	7%	-1
CC(Sc1ncc(C(F)(F)F)cc1Cl)C(=O)NCC1CCCO1 (stereo not given)	x	3%[15.4 µM]	0.4	-2	-5%	-1%	-17
Cc1cc(C(=O)COc2ccc3ccc(=O)oc3c2)c(C)n1C	x	6%[15.4 µM]	-1.5	-1	-3%	4%	-8
O=C(Nc1ccc2c(c1)CN(Cc1ccco1)CC2)C1CCCO1 (stereo not given)	-0.4%	12%	u	-8	10%	1%	5
CN1C(=O)CSC1=Nc1cccc(Cl)c1	-1.6%	-22%	3.3	9	1%	11%	-10
O=C(c1ccco1)N1CCN(c2ncnc3c2cnn3-c2ccccc2)CC1	-2.2%	u	0.6	14	-4%	9%	-9
Cc1ccccc1OCC(=O)NCCNC(=O)c1ccccn1	x	-23%[15.4 µM]	-3.2	-8	8%	19%	4
Cc1nc2ccc(S(=O)(=O)NCC(=O)NCc3ccc(Cl)cc3)cc2s1	-3.1%&1.0%	0%	x	-8	-4%	7%	11
NC(=O)/C(=N\O)c1ccccc1	1.3%	-18%	5.6	-12	17%	11%	x
O=C(CNc1ccc2ccccc2c1)N/N=C/c1ccc(OC(=O)/C=C/c2ccco2)cc1	x	3%[15.4 µM]	2.4	7	6%	0%	15
COC(=O)c1cc(Br)ccc1N(Cc1cc(OC)cc(OC)c1)S(C)(=O)=O	1.6%&2.2%	-46%[inhibitor]	x	-5	0%	x	0
Cc1cc(C)n(-c2ncccc2[N+](=O)[O-])n1	-1.0%	-2%[15.4 µM]	5.3	-4	13%	-6%	x
